Bioassay records as filed in PubChem.
AF4-AF9 inh: MLL-AF4/AF9 protein interaction inhibition; AID 651704; inhibition, % at 10 µM; P42568; AlphaScreen, biotin-AF4 peptide binding to FLAG-AF9; 0.47% of 350,000 active;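 active = every replicate reaching a set inhibition limit, whatever the replicate mean, cut at about 25% in these data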;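 note: 0% = plate neutral control median and 100% = total signal loss; the record names both 10 and 1 µM as test concentration; the first replicate is given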
Target sequence (P42568 whole entry, looked up): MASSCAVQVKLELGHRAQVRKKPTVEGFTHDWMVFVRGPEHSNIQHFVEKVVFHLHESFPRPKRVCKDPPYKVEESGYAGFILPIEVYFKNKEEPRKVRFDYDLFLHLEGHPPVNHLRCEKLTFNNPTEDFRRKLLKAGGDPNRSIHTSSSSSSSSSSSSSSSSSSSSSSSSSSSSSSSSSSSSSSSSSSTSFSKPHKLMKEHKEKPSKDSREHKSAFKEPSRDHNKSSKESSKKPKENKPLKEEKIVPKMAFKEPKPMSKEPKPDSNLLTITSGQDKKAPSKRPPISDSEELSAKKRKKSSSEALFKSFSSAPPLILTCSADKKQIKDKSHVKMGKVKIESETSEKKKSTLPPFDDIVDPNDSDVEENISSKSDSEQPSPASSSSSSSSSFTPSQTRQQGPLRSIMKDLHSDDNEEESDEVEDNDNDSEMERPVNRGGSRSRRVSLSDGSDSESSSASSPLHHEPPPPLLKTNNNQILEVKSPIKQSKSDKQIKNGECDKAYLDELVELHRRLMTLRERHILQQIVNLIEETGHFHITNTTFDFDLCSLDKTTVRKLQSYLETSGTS
rRNA inh HTS: inhibits bacterial ribosomal RNA function over humanized ribosomes | E. coli WT GFP vs humanized-ribosome RFP mutants, fluorescence, 24 h; active compounds read low; DMSO median 0, no signal -100 | GFP signal change (wild-type ribosome), % (no concentration beside the values) | 1.6% of 350,000 active | AID 720706;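 active = significant combined selectivity score with lowered wild-type GFP, culture density cut under 30%, mutant RFP and density less affected; inactive = any of these conditions unmet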; note: one replicate is shown; some compounds called inactive have numbers as strong as hits
FGF22 binding: FGF22 (human) thermal shift binding | calls only at 9.99 µM | Q9HCT0 | recombinant FGF22 thermal shift, SYPRO orange fluorescence; percent of sucrose octasulfate shift, DMSO zero | 1.5% of 340,000 active | AID 651658;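 active = melting point raised past a set limit in the mean and every replicate; three in four hits are not shown here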
Target sequence (Q9HCT0 whole entry, looked up): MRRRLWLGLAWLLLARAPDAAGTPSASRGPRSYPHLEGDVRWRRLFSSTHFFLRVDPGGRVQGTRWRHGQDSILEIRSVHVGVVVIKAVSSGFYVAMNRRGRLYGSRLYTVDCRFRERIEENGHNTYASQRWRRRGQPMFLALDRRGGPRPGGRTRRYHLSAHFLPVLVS
rRNA inh HTS OD600: further read-out of rRNA inh HTS, marked with its call; OD600 change, %; measured here: OD600 growth;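 optical density of the mix in the first replicate; 0 = DMSO median and -100 = no signal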
rRNA inh HTS RFP: further read-out of rRNA inh HTS, marked with its call; RFP signal change, %; measured here: RFP humanized mutant strains;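 first replicate; 0 = DMSO median and -100 = no signal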
* marks the source's active call; other numbers are inactive results; i = inactive. The list is partial; count on the stated rates, not on these rows.

SMILES	AF4-AF9 inh	rRNA inh HTS	rRNA inh HTS OD600	rRNA inh HTS RFP	FGF22 binding
C[C@@H]1CN([C@H](C)CO)C(=O)c2cc(/C=C/c3ccccc3)cnc2O[C@H]1CN(C)S(=O)(=O)c1ccccc1F	3.4	-8	4	1.8	i
COc1ccc(NC(=O)Nc2ccc3c(c2)C(=O)N([C@H](C)CO)C[C@@H](C)[C@@H](CN(C)C(=O)Nc2ccccc2)O3)cc1	-1.0	-3	0	-1.1	i
CC=Cc1ccc2n(c1=O)C[C@H]1[C@H](CO)[C@@H](C(=O)N3CCOCC3)N(CC3CC3)[C@@H]21 (mixture of isomers)	-1.7	0	0	-2.7	i
C[C@@H]1CN([C@@H](C)CO)C(=O)c2cc(NS(=O)(=O)c3cccs3)ccc2O[C@H]1CN(C)C(=O)Nc1ccc2c(c1)OCO2	0.1	-4	-3	0.1	i
CN(C)C(=O)c1ccc(-c2ccc([C@@H]3[C@@H](CO)N4CCCCN(CC5CC5)C[C@@H]34)cc2)cc1	-4.3	8	17	-5.2	i
COC(=O)C[C@H]1C[C@@H]2c3cc(NS(C)(=O)=O)ccc3O[C@@H]2[C@@H](CO)O1	-0.7	9	10	-0.9	i
CS(=O)(=O)c1ccc(Nc2nc(C(N)c3ccccc3)cs2)cc1 (stereo not given)	-3.6	4	10	-1.2	i
O=C(N[C@H](CO)Cc1ccccc1)[C@H]1O[C@@H](n2ccc(=O)[nH]c2=O)[C@H](O)[C@@H]1O	-1.7	7	12	-4.4	i
CN(C)C(=O)c1ccc(-c2ccc([C@@H]3[C@@H](C#N)N(C(=O)Cc4ccccn4)[C@H]3CO)cc2)cc1	-3.2	2	35	4.1	i
COC(=O)[C@]12CCCCC=C1N(Cc1cccc3ccccc13)C(=O)[C@H](CC(=O)NCc1cccc3ccccc13)C2	-0.3	4	23	2.7	i
CC(C)C[C@@H](CN1CCCC1CN1C(=S)NC[C@@H]1Cc1ccc(O)cc1)N1C[C@H](Cc2ccc(O)cc2)N(CC2CCCCC2)C1=S (stereo not given in full)	8.2	11	11	12	i
Cc1ccc(S(=O)(=O)N(C)C[C@@H]2Oc3ccc(NC(=O)Nc4c(C)noc4C)cc3C(=O)N([C@@H](C)CO)C[C@@H]2C)cc1	-16	0	4	-1.1	i
O=C1c2ccccc2C(=O)N1CCCN1C(=O)c2ccccc2C1=O	-3.0	15	14	-0.6	i
CSc1ccc(CN2CCC2(C)C(=O)Nc2cccc(Oc3ccccc3)c2)cc1 (stereo not given)	-1.4	13	11	3.6	i
CCCCCCn1c(=O)n2n(c1=O)[C@@H]1CN(S(=O)(=O)c3ccc(C)cc3)C[C@]1(O)[C@@H](OC(=O)NCc1ccccc1F)C2	-3.3	5	2	6.2	i
O=C(C[C@@H]1C=C[C@@H](NC(=O)c2cnccn2)[C@H](CO)O1)NCc1ccccc1F	-1.2	2	-9	0.1	i
C[C@H]1CN([C@@H](C)CO)C(=O)c2cc(C#CC3CCCCC3)cnc2O[C@H]1CN(C)C(=O)Cc1ccccn1	3.7	1	6	-1.9	i
C[C@H]1CN([C@@H](C)CO)C(=O)Cc2cc(NC(=O)Nc3ccc4c(c3)OCO4)ccc2O[C@H]1CN(C)Cc1ccc2c(c1)OCO2	4.9	-18	-55	14	i
Cc1cnc(-c2nc3ccccc3n2C(C(=O)Nc2c(C)cccc2C)C2CC2)cn1 (stereo not given)	-3.0	0	0	-2.7	i
CC1(C)C(=O)C=C(N2CCCCC2)c2ccccc21	-2.2	1	9	1.0	i

SMILES	AF4-AF9 inh	rRNA inh HTS	rRNA inh HTS OD600	rRNA inh HTS RFP	FGF22 binding
CC(=O)N(C)C[C@@H]1Oc2cc(C#Cc3ccncc3)ccc2S(=O)(=O)N([C@@H](C)CO)C[C@@H]1C	-2.6	1	8	-2.1	i
C[C@@H]1CN([C@@H](C)CO)C(=O)Cc2cc(NC(=O)CCC(F)(F)F)ccc2O[C@@H]1CN(C)CC1CC1	-0.7	1	6	0.2	i
C[C@@H]1CN([C@@H](C)CO)C(=O)c2cc(-c3ccc(F)cc3)cnc2O[C@H]1CN(C)C(=O)c1cccnc1	-2.0	1	0	-3.7	i
CCCC#Cc1cnc2c(c1)C(=O)N([C@@H](C)CO)C[C@@H](C)[C@H](CN(C)C(=O)Nc1ccccc1F)O2	0.0	6	-1	1.5	i
CN(C)CCCN(C(=O)CCOc1ccccc1)c1nc2ccc(F)cc2s1	4.8	6	-3	2.3	i
CC(NC(=O)C1CCCC1)c1ccccc1 (stereo not given)	-2.1	2	1	1.9	i
COc1ccc(CN2C(=O)C(CC(=O)NCCc3ccccn3)CC(C(=O)N(C)C)=C2C)cc1 (stereo not given)	-0.6	17	15	1.6	i
CO[C@H]1CN(C)C(=O)c2cc(NC(=O)c3ccccc3F)ccc2OC[C@@H](C)N(CC2CCOCC2)C[C@@H]1C	3.4	-3	0	1.9	i
CCC(=O)N1[C@H](CO)[C@@H]2c3ccccc3N(S(=O)(=O)c3ccccc3)C[C@@H]21	0.8	-1	4	-0.6	i
COc1ccc(S(=O)(=O)N(C)C[C@@H]2Oc3c(NC(=O)c4ccncc4)cccc3C(=O)N([C@@H](C)CO)C[C@H]2C)cc1	-2.5	-2	6	1.8	i
O=C(Nc1ccc(Cl)cc1)N1C[C@H]2[C@@H](c3ccccc31)[C@H](CO)N2CC1CCCCC1	8.1	-56	-77	-15	i
COc1ccc2c3c([nH]c2c1)[C@H](CO)N(C(=O)C1CCCCC1)CC31CCN(C(=O)NC(C)C)CC1	-0.3	2	5	-0.3	i
O=C([C@@H]1[C@@H](CO)[C@@H]2Cn3c(ccc(C4=CCCCC4)c3=O)[C@@H]2N1Cc1nccs1)N1CCCCC1	-3.9	0	-3	0.9	i
CCCn1cnc2c(SCc3ccccc3Cl)nc(N)nc21	0.1	-41	-41	-10	i
Cc1ccc(S(=O)(=O)N[C@@H]2CC[C@@H](CCn3cc(-c4cccc(F)c4)nn3)O[C@@H]2CO)cc1	1.8	-2	-2	0.3	i
N#Cc1cccc(-c2ccc3c(c2)[C@@H]2[C@@H](CCN2C(=O)c2ccc4c(c2)OCO4)[C@@H](CO)N3)c1	-2.0	-13	1	15	i
COc1ccc(CN(C)C[C@H]2Oc3ccc(NC(=O)Cc4cn(C)c5ccccc45)cc3CC(=O)N([C@@H](C)CO)C[C@@H]2C)cc1	13	0	-8	29	i
CCCCN1CC(N2CCN(CCN(C)C)CC2)CS1(=O)=O (stereo not given)	-1.2	17	9	-1.4	i
Cc1noc(C)c1NC(=O)N(C)C[C@@H]1Oc2ccc(NC(=O)Nc3ccc(C(F)(F)F)cc3)cc2C(=O)N([C@H](C)CO)C[C@@H]1C	6.8	-4	-17	0.2	i
Cc1noc(C)c1S(=O)(=O)Nc1ccc2c(c1)C(=O)N([C@H](C)CO)C[C@@H](C)[C@H](CN(C)Cc1ccc3c(c1)OCO3)O2	0.0	-2	6	-2.7	i

SMILES	AF4-AF9 inh	rRNA inh HTS	rRNA inh HTS OD600	rRNA inh HTS RFP	FGF22 binding
CC1(C(=O)NS(=O)(=O)c2ccc(Cl)cc2)CCN1C(=O)c1ccccc1 (stereo not given)	-1.8	7	16	0.4	i
COC(=O)C[C@H]1CC[C@H]2[C@H](COc3ccc(NC(=O)Nc4cc(C)cc(C)c4)cc3C(=O)N2C)O1	5.0	-3	-7	-1.4	i
C[C@H](CO)N1C[C@H](C)[C@@H](CN(C)S(=O)(=O)c2cn(C)cn2)OCCCC[C@H](C)Oc2ccc(NC(=O)Nc3cccc4ccccc34)cc2C1=O	5.8	-3	-14	-3.7	i
COc1ccc(CN(C)C[C@H]2Oc3c(NC(=O)C4CC4)cccc3C(=O)N([C@H](C)CO)C[C@@H]2C)cc1	1.1	-12	-23	2.0	i
C[C@H]1CN([C@@H](C)CO)C(=O)c2ccccc2-c2ccccc2CO[C@H]1CN(C)C	-2.7	1	10	-4.6	i
COCCN(C(=O)COC(=O)CCCc1c[nH]c2ccccc12)c1c(N)n(Cc2ccccc2)c(=O)[nH]c1=O	2.8	1	-1	0.9	i
CC(C)NC(=O)N(C)C[C@H]1OCCCC[C@H](C)Oc2ccc(NS(=O)(=O)c3ccc(F)cc3)cc2C(=O)N([C@@H](C)CO)C[C@H]1C	-2.8	-1	-1	-0.9	i
COC(=O)C[C@@H]1CC[C@H](NS(=O)(=O)c2ccc(OC)cc2)[C@@H](CO)O1	-2.2	2	-3	-4.7	i
O=C(C[C@@H]1CC[C@H](NC(=O)Nc2ccc3c(c2)OCO3)[C@@H](CO)O1)NCc1ccc(Cl)cc1	0.3	-4	-3	-1.7	i
COc1ccc(-c2cc(NC=O)c3ncc(-c4cccc(C(F)(F)F)c4)n3c2)cc1OC	0.3	4	0	7.1	i
CCCNC(=O)N(C)C[C@@H]1Oc2cc(C#CCC(C)C)ccc2S(=O)(=O)N([C@@H](C)CO)C[C@H]1C	2.9	-12	-36	0.1	i
COc1ccc(S(=O)(=O)N(C)C[C@H]2Oc3ccc(NC(=O)Cn4cnnn4)cc3C(=O)N([C@H](C)CO)C[C@H]2C)cc1	-1.1	0	1	-0.5	i
COc1ccc(CN(C)C[C@H]2Oc3c(NS(=O)(=O)c4ccc(C)cc4)cccc3C(=O)N([C@@H](C)CO)C[C@@H]2C)cc1	2.7	1	5	-1.5	i
CCN(CC(=O)Nc1c(F)cccc1F)C(=O)c1cccn1C	-5.2	7	10	-0.3	i
C/C=C/c1ccc([C@H]2[C@@H](CO)N3CCCCN(C(=O)C4CCCC4)C[C@@H]23)cc1	0.9	1	-19	1.9	i
Cc1ccc(S(=O)(=O)N(C)C[C@@H]2Oc3c(NC(=O)NC(C)C)cccc3C(=O)N([C@H](C)CO)C[C@H]2C)cc1	-2.0	2	4	1.1	i
CCC(=O)N(CC1CCC1)C[C@H]1[C@H](c2ccccc2)[C@@H](CO)N1C(C)=O	-2.4	-2	3	0.7	i
O=C(CCCCCCCC(=O)N1CCCC1)N1CCCC1	-2.7	2	5	-0.2	i
CC(C)CC#Cc1ccc2c(c1)O[C@@H](CN(C)Cc1ccncc1)[C@H](C)CN([C@@H](C)CO)S2(=O)=O	-8.9	-16	-27	3.7	i
COCCNC(=O)C[C@H]1CC[C@@H](NC(=O)NC2CCCCC2)[C@H](CO)O1	2.2	1	3	0.1	i

Reformatted: results already given.
Every second line gives: AF4-AF9 inh, rRNA inh HTS, rRNA inh HTS OD600, rRNA inh HTS RFP, FGF22 binding
COc1ccc(S(=O)(=O)N(C)C[C@H]2Oc3ccc(NC(=O)Cn4cnnn4)cc3C(=O)N([C@H](C)CO)C[C@H]2C)cc1
    -1.1, 0, 1, -0.5, i
COc1ccc(CN(C)C[C@H]2Oc3c(NS(=O)(=O)c4ccc(C)cc4)cccc3C(=O)N([C@@H](C)CO)C[C@@H]2C)cc1
    2.7, 1, 5, -1.5, i
CCN(CC(=O)Nc1c(F)cccc1F)C(=O)c1cccn1C
    -5.2, 7, 10, -0.3, i
C/C=C/c1ccc([C@H]2[C@@H](CO)N3CCCCN(C(=O)C4CCCC4)C[C@@H]23)cc1
    0.9, 1, -19, 1.9, i
Cc1ccc(S(=O)(=O)N(C)C[C@@H]2Oc3c(NC(=O)NC(C)C)cccc3C(=O)N([C@H](C)CO)C[C@H]2C)cc1
    -2.0, 2, 4, 1.1, i
CCC(=O)N(CC1CCC1)C[C@H]1[C@H](c2ccccc2)[C@@H](CO)N1C(C)=O
    -2.4, -2, 3, 0.7, i
O=C(CCCCCCCC(=O)N1CCCC1)N1CCCC1
    -2.7, 2, 5, -0.2, i
CC(C)CC#Cc1ccc2c(c1)O[C@@H](CN(C)Cc1ccncc1)[C@H](C)CN([C@@H](C)CO)S2(=O)=O
    -8.9, -16, -27, 3.7, i
COCCNC(=O)C[C@H]1CC[C@@H](NC(=O)NC2CCCCC2)[C@H](CO)O1
    2.2, 1, 3, 0.1, i

Continued:
SMILES	AF4-AF9 inh	rRNA inh HTS	rRNA inh HTS OD600	rRNA inh HTS RFP	FGF22 binding
CC[C@H]1C(=O)[C@@H](Cc2ccccc2)[C@@H]2CCN3C(=O)CCC[C@H]1[C@H]23	-20	-13	-11	-4.3	i
C#Cc1cccc(Nc2nc(NC(C)C)nc3ccsc23)c1	5.5	-60	-82	-22	i
COc1ccc2c3c(n(C)c2c1)[C@H](CO)N(S(C)(=O)=O)CC31CN(C(=O)C2CCCC2)C1	0.8	-1	6	-0.9	i
Cc1ccc(S(=O)(=O)Nc2ccc3c(c2)C(=O)N([C@H](C)CO)C[C@@H](C)[C@@H](CN(C)C(=O)NC(C)C)O3)cc1	1.9	-1	6	-2.3	i
C[C@@H]1CN([C@@H](C)CO)C(=O)c2cc(-c3ccccc3F)cnc2O[C@H]1CN(C)C(=O)CN(C)C	-4.9	-1	7	0.9	i
Nc1c(Br)cc2c([nH]c(=O)c3ccccc32)c1Br	9.2	1	-41	-5.4	i
Nc1ccc2c(c1)C(=NO)c1ccccc1-2	12	-21	-28	1.9	i
